Screening data: PubChem BioAssay, several laboratories
Insulin prom inh = TRM-6 insulin promoter activity inhibition; TRM-6 cells (human fetal islet line), insulin promoter-eGFP reporter, imaging; reporter expression induced with tamoxifen; inhibition, % at 2 µM; hit rate 0.9% among 130,000; AID 1273;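 active means inhibition above the mean plus 3 SD, with well images judged a real hit on visual review, cut at about 60% in these data, passing the limit was not always enough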
PKD1 kinase inh = inhibitors of human PKD1 kinase | Q15139 | PKD1 kinase fluorescence polarization assay | inhibition, %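 (about 10 µM by stock and volumes)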 | hit rate 0.056% among 200,000;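 active means inhibition of 50% or more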;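 further: controls were vehicle for no effect and a reference inhibitor for full effect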
Target sequence (Q15139 whole entry, looked up): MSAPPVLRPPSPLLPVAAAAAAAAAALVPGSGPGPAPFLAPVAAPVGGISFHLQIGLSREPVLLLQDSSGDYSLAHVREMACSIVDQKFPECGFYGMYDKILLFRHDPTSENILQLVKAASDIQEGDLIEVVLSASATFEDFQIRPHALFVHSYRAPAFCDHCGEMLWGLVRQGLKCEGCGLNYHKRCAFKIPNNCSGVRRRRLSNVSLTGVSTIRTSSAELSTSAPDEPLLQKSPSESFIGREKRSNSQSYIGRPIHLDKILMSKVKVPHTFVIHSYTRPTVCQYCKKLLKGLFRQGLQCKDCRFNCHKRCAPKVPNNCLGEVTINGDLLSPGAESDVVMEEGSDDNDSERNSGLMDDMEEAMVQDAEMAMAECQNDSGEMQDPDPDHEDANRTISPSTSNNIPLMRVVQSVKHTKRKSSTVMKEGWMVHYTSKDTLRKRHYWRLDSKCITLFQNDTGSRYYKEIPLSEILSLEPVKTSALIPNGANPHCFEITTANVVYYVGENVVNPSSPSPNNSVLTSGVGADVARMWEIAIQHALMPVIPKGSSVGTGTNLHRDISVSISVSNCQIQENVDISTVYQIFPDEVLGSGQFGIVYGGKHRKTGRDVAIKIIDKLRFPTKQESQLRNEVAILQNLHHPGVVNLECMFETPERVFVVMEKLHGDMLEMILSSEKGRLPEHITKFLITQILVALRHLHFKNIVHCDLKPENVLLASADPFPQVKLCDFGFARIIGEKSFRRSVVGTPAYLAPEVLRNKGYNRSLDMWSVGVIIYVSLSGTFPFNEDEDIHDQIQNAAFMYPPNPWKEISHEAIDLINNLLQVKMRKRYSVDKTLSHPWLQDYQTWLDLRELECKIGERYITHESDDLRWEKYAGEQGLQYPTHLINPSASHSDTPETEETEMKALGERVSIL
HSV augment = increases HSV replication in cells. HSV replication augmentation in cells, fold increase. maximum fold increase. hit rate 0.005% among 220,000. AID 1956;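 active means peak rise of 1.5-fold or more in the series; tested in PC3 cells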;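 further: first round at 10 µM; read as green reporter fluorescence; hits show the peak of a series up to 25 µM; 1 = signal of infected wells without compound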
GALR2 ag = GALR2 (human) receptor agonism; O43603; GALR2-expressing cells, agonist activation read-out; activation, %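 (tested at 5 µM)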; hit rate 0.48% among 140,000; AID 803;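 active means above mean plus 3 SD of all compounds, about 5% in these data, not always enough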;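 further: 0% = vehicle buffer wells and 100% = reference agonist at full effect; tested in CHO reporter cells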
RGS16-Gao HTS = regulators of human RGS16-Galphao interaction; hit rate 0.38% among 220,000; bead-based flow cytometry RGS16-Galphao binding, fluorescence; actives lie on both sides; binding response (% of control), % at 10 µM; AID 1441;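 active means below 25% or above 175%, edge rows of some plates excepted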;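 further: Galphao activated by GDP with aluminum fluoride before binding; 100% = wells without compound and 0% = beads without RGS; some results beyond the cut were filed as inactive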
Insulin prom inh cell count = also measured in Insulin prom inh; calls as there; normalized cell count, %; measured here: cell count, toxicity; reference of the scale not given here;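 cells exposed to compound for 48 h; stained nuclei by imaging scaled within each plate; lower means fewer cells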
HSV augment primary fold = also measured in HSV augment; calls as there; fold increase; compound at 10 µM; measured here: primary screen fold increase 10 uM; tested in PC3 cells;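 GFP signal in the first replicate; 1 = infected wells without compound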
An asterisk follows results filed as active; i = inactive; nt = not tested or not shown. No enrichment for hits. Share with any hit: about 1.3%.

SMILES | Insulin prom inh | Insulin prom inh cell count | PKD1 kinase inh | HSV augment | HSV augment primary fold | GALR2 ag | RGS16-Gao HTS
COc1ccc(Nc2ccc(S(=O)(=O)N3CCCCC3)cc2[N+](=O)[O-])cc1OC | 6 | 78 | -5 | i | 0.97 | -0.9 | 124
O=C(COC(=O)c1ccco1)Nc1ccccc1 | 3 | 54 | -9 | i | 1 | -1.1 | 103
O=C(CCNC(=O)c1ccc(Cl)cc1)Nc1ccc(F)cc1F | nt | nt | -8 | i | 0.87 | -0.3 | 107
Cc1ccc(-c2ccc(/C=C(\C#N)C(N)=S)o2)c([N+](=O)[O-])c1 | nt | nt | -2 | i | 1.1 | nt | 88
CN(C(=O)/C=C/c1ccco1)c1ccccc1C(=O)O | nt | nt | 0 | i | 1.3 | nt | 98
CCN(C(=O)Cn1c(=O)n2nc(CCn3nc(C)cc3C)nc2c2ccccc21)c1cccc(C)c1 | nt | nt | -13 | i | 0.77 | -1.4 | 103
CCC1=NN2C(=N)/C(=C\c3cccn3-c3ccc(OC)cc3)C(=O)N=C2S1 | 50 | 62 | -1 | i | 0.96 | nt | 104
COC(=O)c1sc(-c2ccc(C(C)(C)C)cc2)cc1NC(=O)CSCC(=O)O | nt | nt | nt | i | 1.1 | nt | 92
COc1ccc2cc(C(=O)C3CCCN(C(=O)c4cc(=O)n(C)c(=O)n4C)C3)ccc2c1 (centres undefined) | -100 | 103 | -6 | i | 0.93 | nt | 102
CCc1ccc(OCCCC(=O)Nc2ccc(N3CCCCC3)cc2)cc1 | -16 | 96 | -9 | i | 0.57 | 0.6 | 124
CN1C(=O)C(CC(=O)Nc2ccc3c(c2)Cc2ccccc2-3)N(C)C1=O (centres undefined) | -308 | 67 | -10 | i | 0.73 | -0.3 | 98
COc1ccccc1NC(=O)CSc1nnnn1-c1ccc2c(c1)OCO2 | -33 | 140 | -3 | i | 1.2 | 0.0 | 109
CCC(=O)Nc1c(-c2cccs2)c(=O)c2ccccc2n1C | -36 | 115 | -2 | i | 0.95 | -3.2 | 106
Cc1cc(NS(=O)(=O)c2ccc(NC(=S)NC(=O)c3cccnc3)cc2)no1 | nt | nt | 6 | i | 1.1 | nt | 109
CC(C)N(C(=S)Nc1cccnc1)c1ccccc1 | nt | nt | nt | i | 1 | nt | 99
Cc1nn(C)c(C)c1CS(=O)(=O)c1ccccc1 | 0 | 114 | -6 | i | 1.1 | nt | 110
CC(=O)c1cccc(NC(=O)NC2CC3CCCC(C2)N3CC(C)C)c1 (centres undefined) | -197 | 93 | -4 | i | 0.94 | -3.4 | 100
CC(C)Oc1c(Br)cc(Br)cc1/C=N/NC(N)=S | nt | nt | 0 | i | 0.77 | -0.6 | 121
O=C(NCc1cccnc1)C(=O)NCC1OCCCN1S(=O)(=O)c1ccc(Cl)cc1 (centres undefined) | 20 | 117 | 1 | i | 0.99 | nt | 105
CCOc1ccc(OCc2ccc(C(=O)Nc3cccc(C)n3)o2)cc1 | 50 | 110 | 7 | i | 1 | -1.9 | 97
Cc1ccc(NC(=O)c2c(C)nn(-c3ccccc3)c2Cl)cc1 | nt | nt | -4 | i | 1.1 | -0.6 | 40
Cc1n[nH]c(=O)n1-c1ccc(OCc2ccccc2)cc1 | nt | nt | -4 | i | 0.81 | nt | 100
CCc1cc2c3c(c(=O)oc2cc1O)CCCC3 | -153 | 85 | 17 | i | 1 | -2.3 | 55
O=C(Nc1ccc2c(c1)CCC2)c1cc2ccccc2o1 | 17 | 115 | 2 | nt | nt | -0.1 | 110
CC(=O)c1noc(C)c1C(=O)Nc1nccs1 | nt | nt | -5 | i | 0.84 | -0.7 | 106
COc1ccccc1Nc1nc2c(s1)CCC2 | nt | nt | -10 | i | 0.96 | -1.7 | 100
Cc1cc(=O)n(CCCO)c(O)c1C#N | nt | nt | -15 | i | 1.1 | -1.2 | 99
O=C(NCc1ccccn1)c1ccc(Cl)s1 | -160 | 70 | 4 | i | 1 | -2.2 | 103
Cc1cc(SCC(=O)N/N=C/c2cccnc2)nc2c(C)cccc12 | nt | nt | -4 | i | 1.1 | nt | 106
C/C(=N/OC(=O)c1ccc(C)cc1)C(=O)c1ccc(Br)cc1 | nt | nt | nt | i | 0.93 | nt | 82
O=C(CN1C(=O)C2C3CC(C(Br)C3Br)C2C1=O)Nc1ccc(C(=O)O)cc1 (centres undefined) | nt | nt | nt | i | 1.1 | nt | 102
COc1ccc([N+](=O)[O-])cc1NC(=O)CC1SC(=Nc2cccc(C)c2C)N(/N=C/c2cccc(OC)c2OC)C1=O (centres undefined) | 30 | 78 | 4 | i | 0.93 | nt | 110
S=C(Nc1cccc2ccccc12)NN1CCOCC1 | -181 | 103 | -7 | i | 1 | -3.2 | 116
CC(=O)c1c(C)[nH]c(C(=O)Nc2ccc(S(=O)(=O)N(C)C)cc2)c1C | nt | nt | nt | i | 1.2 | nt | 104
Cc1cc(/C=C2\SC(=O)N(CC(=O)Nc3ccccc3F)C2=O)c(C)n1C | nt | nt | -6 | i | 1 | nt | 98
COc1ccccc1NC(=O)C1=C(C)NC(=O)NC1c1ccco1 (centres undefined) | nt | nt | nt | i | 1.1 | nt | 104
O=C(CC1COc2ccccc2O1)NCCc1ccccc1 (centres undefined) | 14 | 66 | -3 | i | 1 | -0.8 | 86
Cc1cc(-c2csc(NC(=O)c3ccccc3C(F)(F)F)n2)c(C)n1Cc1ccccc1 | nt | nt | -10 | i | 1.1 | -0.1 | 101
O=C(/C=C/c1cccc(C(F)(F)F)c1)Nc1cccc(C(F)(F)F)c1 | 6 | 148 | -5 | i | 0.88 | -0.3 | 106
O=C1CCC([N+](=O)[O-])C(c2ccc(Cl)c([N+](=O)[O-])c2)N1 (centres undefined) | 12 | 110 | 4 | i | 0.97 | nt | 100
Cc1cc(C(=O)CSc2nnc(-c3ccc(OC(F)F)cc3)o2)c(C)n1Cc1cccs1 | nt | nt | -10 | i | 0.93 | -1.0 | 105
O=C(c1ccccc1Sc1cccc2ccccc12)N1CCOCC1 | 5 | 45 | -2 | i | 0.85 | -0.8 | 98
CCCCOc1ccc(C(=O)N2CCCCCC2)cc1 | 9 | 84 | 2 | i | 0.96 | -1.4 | 102
O=C(Nc1ccccc1-c1ccccc1)NC1CCN(CC(=O)N2CCOCC2)CC1 | 3 | 121 | 7 | i | 1.1 | 1.0 | 98
CSc1ccc(N2C(=O)NC3(CCCCC3)C2=O)cc1 | -14 | 75 | -2 | i | 1 | 0.6 | 95
COc1ccc(C2C(C#N)=C(N)OC3=C2C(=O)CCC3)c(OC)c1OC (centres undefined) | 6 | 107 | -2 | i | 1 | -2.5 | 88
Cc1ccc(/C=N/NC(=O)C2=NNC(c3ccccc3)(c3ccccc3)C2)c(O)c1 | nt | nt | -7 | i | 1 | -2.0 | 101
O=C1CCCC(O)=C1C1NCCc2ccccc21 (centres undefined) | 21 | 96 | 0 | i | 0.99 | -3.4 | 102
COc1cccc(CC2(CO)CCCN(Cc3cc(F)ccc3-n3cccn3)C2)c1 (centres undefined) | nt | nt | 5 | i | 1.2 | nt | 99
CSc1nc(-c2ccccc2)nn1C(=O)c1ccc(Cl)cc1 | 4 | 121 | 5 | i | 0.99 | -1.5 | 98

2 of the compounds above, with values under each structure.
Below each compound – Insulin prom inh	Insulin prom inh cell count	PKD1 kinase inh	HSV augment	HSV augment primary fold	GALR2 ag	RGS16-Gao HTS
CCCCOc1ccc(C(=O)N2CCCCCC2)cc1
 : 9	84	2	i	0.96	-1.4	102
O=C(Nc1ccccc1-c1ccccc1)NC1CCN(CC(=O)N2CCOCC2)CC1
 : 3	121	7	i	1.1	1.0	98

The list continues:
SMILES | Insulin prom inh | Insulin prom inh cell count | PKD1 kinase inh | HSV augment | HSV augment primary fold | GALR2 ag | RGS16-Gao HTS
Cn1c(CSCc2ccc(Cl)cc2Cl)n[nH]c1=S | nt | nt | 2 | i | 1.2 | nt | 96
Cn1ccnc1SCc1nc2c(cnn2-c2ccccc2)c(=O)[nH]1 | nt | nt | 1 | i | 1.2 | -0.5 | 104
CC(n1cnnn1)C12CC3CC(CC(C3)C1)C2 (centres undefined) | i | 84 | -8 | i | 0.91 | -3.1 | 115
O=C(NC(=O)c1ccccc1O)c1ccc2c(c1)CCO2 | nt | nt | nt | i | 0.97 | nt | 101
Cc1ccc(C(=O)N2N=C(CC(C)C)CC2(O)C(F)(F)F)o1 (centres undefined) | nt | nt | 0 | i | 1 | nt | 102
Cc1cccc(/N=C/c2c(O)c3ccccc3oc2=O)n1 | -26 | 80 | -9 | i | 0.95 | -0.8 | 102
c1ccc(COc2ccc(OCCn3cncn3)cc2)cc1 | 30 | 88 | -9 | i | 1.1 | -1.0 | 103
CC1=CC(c2ccc(Cl)cc2)n2nc(NC(=O)c3ccccc3)nc2N1 (centres undefined) | 26 | 150 | 1 | i | 0.99 | -0.3 | 99
Cc1nnc(SCC(=O)NCc2ccco2)[nH]c1=O | -62 | 53 | -3 | i | 0.93 | -1.2 | 108
O=C(Cn1nnc(-c2ccccc2F)n1)Nc1ccc2c(c1)OCO2 | nt | nt | -6 | i | 1.1 | -1.1 | 106
Cc1ccc(NC(=O)CC2SC(=Nc3ccc(O)cc3)NC2=O)cc1 (centres undefined) | 10 | 180 | -1 | i | 0.98 | nt | 105
CCN(CC)CCNS(=O)(=O)c1ccc(C(=O)NN)cc1 | nt | nt | -12 | i | 0.95 | nt | 89
Cn1cc(/C=C2\SC(=O)NC2=S)c2ccccc21 | nt | nt | 7 | i | 1.2 | nt | 113
CCN(C(=O)CCc1nc(-c2ccccc2F)no1)c1cc(OC)ccc1OC | 8 | 99 | -9 | i | 0.94 | -0.6 | 104
CCOC(=O)N1CCN(c2ccc(C(=O)CC)cc2F)CC1 | -4 | 86 | -1 | i | 1 | -0.4 | 99
COCC(C)NC(=S)Nc1ccccc1[N+](=O)[O-] (centres undefined) | nt | nt | -7 | i | 0.69 | nt | 101
CC(C)NC(=O)CCNS(=O)(=O)c1ccc(Br)cc1 | nt | nt | -5 | i | 0.99 | -0.4 | 94
CCOC(=O)CNC(=O)CSc1nc(-c2ccccc2)ns1 | -33 | 112 | 1 | i | 0.9 | nt | 86
CCOC(=O)N1CCN(C(=O)Nc2ccc3nc(C)sc3c2)CC1 | 26 | 83 | -8 | i | 0.97 | -1.5 | 109
CNC(=O)CSCc1c(F)cccc1Cl | nt | nt | 1 | i | 0.89 | -2.7 | 80
CCOc1ccccc1C(=O)N[C@H](C(=O)Nc1cc(S(=O)(=O)N(C)C)ccc1OC)C(C)C | nt | nt | 2 | i | 0.99 | nt | 100

Of the compounds above, these have an aryl thioether with sulfur outside any ring:
SMILES | Insulin prom inh | Insulin prom inh cell count | PKD1 kinase inh | HSV augment | HSV augment primary fold | GALR2 ag | RGS16-Gao HTS
COc1ccccc1NC(=O)CSc1nnnn1-c1ccc2c(c1)OCO2 | -33 | 140 | -3 | i | 1.2 | 0.0 | 109
Cc1cc(SCC(=O)N/N=C/c2cccnc2)nc2c(C)cccc12 | nt | nt | -4 | i | 1.1 | nt | 106
Cc1cc(C(=O)CSc2nnc(-c3ccc(OC(F)F)cc3)o2)c(C)n1Cc1cccs1 | nt | nt | -10 | i | 0.93 | -1.0 | 105
O=C(c1ccccc1Sc1cccc2ccccc12)N1CCOCC1 | 5 | 45 | -2 | i | 0.85 | -0.8 | 98
CSc1ccc(N2C(=O)NC3(CCCCC3)C2=O)cc1 | -14 | 75 | -2 | i | 1 | 0.6 | 95
CSc1nc(-c2ccccc2)nn1C(=O)c1ccc(Cl)cc1 | 4 | 121 | 5 | i | 0.99 | -1.5 | 98
Cn1ccnc1SCc1nc2c(cnn2-c2ccccc2)c(=O)[nH]1 | nt | nt | 1 | i | 1.2 | -0.5 | 104
Cc1nnc(SCC(=O)NCc2ccco2)[nH]c1=O | -62 | 53 | -3 | i | 0.93 | -1.2 | 108
CCOC(=O)CNC(=O)CSc1nc(-c2ccccc2)ns1 | -33 | 112 | 1 | i | 0.9 | nt | 86
